# TAR Tat displ: HIV-1 TAR-Tat binding disruption | HIV-1 TAR RNA, Tat peptide displacement FRET; hits give high values | z-score (no concentration beside the values) | 0.6% of 100,000 active | AID 1259389;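 also: score is relative to mean and SD of negative controls; some compounds called inactive have numbers as strong as hits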
# CDC25B-CDK2 inh: human CDC25B-CDK2/CyclinA binding inhibition; HTRF CDC25B-CDK2/CyclinA binding, anti-His/anti-Flag; hits give high values; P30305+P24941; AID 1259370; z-score (no concentration beside the values); 0.72% of 94,000 active;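 also: score is relative to mean and SD of negative controls; strong numbers were not always called active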
# The depositor's hits bear a star; x = no result given.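 The calls were made as follows: active = z-score from 3 up in half or more of its runs; inactive = the rest.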
# Below each SMILES: TAR Tat displ | CDC25B-CDK2 inh
CCOc1ccc(NC2=NC(C)(C)N=C(N)N2)cc1
 : x | 1.92
Clc1ccc(-c2cn3cc(Cl)ccc3n2)cc1
 : 0.05 | 0.35
CCOC(=O)N1CCC(NC(=O)Nc2ccc3snnc3c2)CC1
 : 2.65 | -1.1
O=[N+]([O-])c1cc(S(=O)(=O)C(F)(F)F)ccc1Sc1n[nH]c(=S)s1
 : x | -2.12
C#CCOS(=O)(=O)c1ccc(N2CCCC2=O)cc1
 : x | -1.71
O=C(Nc1ccc(S(=O)(=O)Nc2ncccn2)cc1)N1c2ccccc2Sc2ccccc21
 : 3.35 | -2.67
O=C1COc2cc(S(=O)(=O)N3CCN(c4ncccn4)CC3)c(Cl)cc2N1
 : -4.55 | x
Cn1c(=O)c2c(-c3c(F)cccc3Cl)c(NCc3ccccc3)oc2n(C)c1=O
 : 1.05 | x
CCCCC(=O)OC1=CN(Cc2ccccc2)S(=O)(=O)c2ccccc21
 : 0.22 | -1.59
CCC(C(=O)NCCCN1CCOCC1)n1c2ccccc2c2nc(=O)cc(C)n21 (stereo not drawn)
 : -2.16 | -0.22
NC(=O)c1nc(-c2ccc(OCc3ccccc3)cc2)nc2c1[nH]c(=O)n2CC1CCCO1 (stereo not drawn)
 : 0.22 | x
COC(=O)c1sc(N2C(=O)c3oc4cc(C)c(C)cc4c(=O)c3C2c2ccc(OC)cc2)nc1C (stereo not drawn)
 : -6.88 | -1.71
CCN1C(=O)C2(/C(=C(/O)c3ccc(C)c(F)c3)C(=O)C(=O)N2CCOC)c2ccccc21 (stereo not drawn)
 : 0.5 | -2.11
CCc1nc(SCc2cc(=O)c3cc(C)cc(C)c3[nH]2)n[nH]1
 : 0.37 | x
Cc1csc(NC(=O)c2cc3c(s2)-c2ccccc2OC3)n1
 : 0.93 | -1.21
O=C(c1cc(-c2ccccc2Cl)nc2ccccc12)N1CCN(c2ccc(F)cc2)CC1
 : x | -0.37
Cc1ccc(C(=O)Nc2ccc(S(=O)(=O)Nc3onc(C)c3C)cc2)o1
 : x | -1.13
CCCN(Cc1cc2cccc(C)c2[nH]c1=O)S(C)(=O)=O
 : 1.91 | -1.84
Cc1ccc(N2C(=O)N(c3cc(C)cc(C)c3)C3CS(=O)(=O)CC32)cc1 (stereo not drawn)
 : -0.06 | -0.78
Cc1cc(NC(C)C)n2nc(C)c(-c3ccc(F)cc3)c2n1
 : -0.29 | 0.03
CCc1cc2c(cc3c(=O)n(CC(=O)NC4CCCCCC4)ncn32)s1
 : x | -3.2
CC(C)CC1N=C2c3ccccc3N=C(SCC(=O)Nc3ccccc3F)N2C1=O (stereo not drawn)
 : 1.3 | x
Cc1nn(C)c2c1c(C(F)(F)F)cc(=O)n2CC(=O)N1CCc2ccccc2C1
 : 1.03 | x
CN1C(=O)c2[nH]nc(-c3ccccc3)c2C1c1cccc(O)c1 (stereo not drawn)
 : -0.01 | 0.2
COc1cc(/C=C/c2cc(C(F)(F)F)[nH]c(=O)n2)ccc1OCc1ccccc1F
 : 1.05 | -0.85
O=C(Nc1ccc(Br)cc1)c1cc2n(n1)C(C(F)(F)F)CC(c1cccs1)N2 (stereo not drawn)
 : 0.76 | -1.1
O=C(Cn1ncn2cccc2c1=O)NC1CCCC1
 : 1.62 | -1.11
O=C(CCC(=O)N1CCSc2ccccc21)NC1CCCc2ccccc21 (stereo not drawn)
 : 1.63 | x
N#C/C(=C\c1ccc2c(c1)CCO2)S(=O)(=O)c1ccc(Cl)cc1Cl
 : x | -1
Cc1cc2nc(-c3cc(NC(=O)c4ccc(-c5ccc([N+](=O)[O-])cc5)o4)ccc3O)oc2cc1C
 : x | -3.13
Clc1ccccc1/C=C/c1nc(-c2cccnc2)no1
 : -0.44 | -0.31
O=c1[nH]c2ccccc2n1C1CCN(S(=O)(=O)c2ccc3c(c2)OCCO3)CC1
 : 0.49 | 0.16
CN(C(=O)c1ccc(Br)cc1)C(c1cccs1)c1c[nH]c2ccccc12 (stereo not drawn)
 : -1.69 | -1.15
CC(=O)Nc1ccc2nc(SCc3cc(=O)n4nc(C(C)C)sc4n3)sc2c1
 : 1.16 | x
Cc1cc(C)c2nc(NCc3ccccc3O)sc2c1
 : 1.84 | -1.97
COc1cc(C=NCc2ccccc2)ccc1OC(=O)c1cc(OC)c(OC)c(OC)c1
 : x | -1.38
CC1Cc2ccccc2N1S(=O)(=O)c1ccc2c(c1)C(C)(C)C(=O)N2C (stereo not drawn)
 : 0.17 | x
NS(=O)(=O)c1ccc(-c2ccon2)s1
 : x | -1.93
Cc1c(NC(=O)CCCCCN2C(=O)C3C4C=CC(C4)C3C2=O)c(=O)n(-c2ccccc2)n1C (stereo not drawn)
 : x | -0.47
Cc1cc(C)nc(N2CCC(NC(=O)Nc3ccc(F)cc3)CC2)n1
 : -0.97 | -1.15

# Full records, looked up by structure.
# Clc1ccccc1/C=C/c1nc(-c2cccnc2)no1 across the screens: TAR Tat displ = -0.44; CDC25B-CDK2 inh = -0.31
# Clc1ccc(-c2cn3cc(Cl)ccc3n2)cc1 across the screens: TAR Tat displ = 0.05; CDC25B-CDK2 inh = 0.35

# (more compounds)
# Below each SMILES: TAR Tat displ | CDC25B-CDK2 inh
CCn1nc(-n2cnnc2)c(NS(=O)(=O)c2ccc3c(c2)CCCC3)c1C
 : 0.41 | -1.36
CCOc1cc2[nH]c(=O)n(CCCN3CCOCC3)c(=O)c2cc1OCC
 : 2.23 | x
Cn1c(C(=O)N2CCC(C(=O)NCCCSC3CCCCC3)CC2)cc2sccc21
 : 0.5 | 0.3
CC(C)NC(=O)Cn1cnc2c1c(=O)n(C)c(=O)n2C
 : 1.52 | 1.39
CC(Nc1nc2c(S(=O)(=O)c3ccccc3)nnn2c2ccsc12)c1ccccc1 (stereo not drawn)
 : 0.45 | x
COc1ccc(-c2nn3c(Cn4cnc5ccccc54)nnc3s2)cc1OC
 : 1.59 | -1.45
Cc1cc(C)c(S(=O)(=O)NCCn2nc(-c3ccc(F)cc3)ccc2=O)c(C)c1
 : 0.28 | x
COc1cc(NC(=O)c2ncoc2-c2ccco2)cc(OC)c1
 : 0.18 | x
COC(=O)C1=C(C)NC(C)=C(C(=O)OC(C)(C)CN(C)CCC(c2ccccc2)c2ccccc2)C1c1cccc([N+](=O)[O-])c1 (stereo not drawn)
 : x | -0.93
Cc1ccccc1OCCSc1nc2ccccc2n1CC(O)CO (stereo not drawn)
 : 1.42 | -1.41
COc1ccc(S(=O)(=O)Nc2ccc(Cl)c(N3CCCS3(=O)=O)c2)cc1
 : 0.11 | x
COc1ccc(OC)c(C2=NOC(C(=O)Nc3ccc4c(c3)OCO4)C2)c1 (stereo not drawn)
 : 0.05 | -1.34
Cc1nn(S(=O)(=O)c2ccc(OC(C)C)cc2)c(C)c1S(=O)(=O)N1CCCCC1
 : 0.21 | x
CCOc1ccc(NC2SC(=O)N(Cc3cccc(C(=O)OC)c3)C2=O)cc1 (stereo not drawn)
 : x | -1.85
FC(F)(F)c1ccnc(NCc2ccco2)n1
 : x | -1.48
CCCOc1ccc(Oc2nc(NCC)nc(N(C)C)n2)nn1
 : -0.06 | -0.05
CCOC(=O)C1CCN(c2nc3c(S(=O)(=O)c4ccccc4)nnn3c3ccccc23)CC1
 : -0.31 | x
COc1ccc(C2CC(=O)C3=C(C2)NC(C)=C(C(=O)OC2CCCC2)C3c2ccc(OC)cc2)cc1 (stereo not drawn)
 : 0.91 | -1.41
Cc1ccc(-c2nc3cc(NC(=O)c4ccc([N+](=O)[O-])o4)ccc3o2)cc1Br
 : 1.8 | -2.68
O=C(CN1N=NC2C(=O)N(c3ccc(Br)cc3)C(=O)C21)Nc1ccccc1Cl (stereo not drawn)
 : -1.02 | x
O=C(CCc1nc(CSc2nc3ccccc3s2)no1)Nc1ccc(F)c(Cl)c1
 : 1.7 | x
CCOC(=O)COc1ccc2c(=O)c(-c3ccc(OC)c(OC)c3)c(C(F)(F)F)oc2c1
 : 2.5 | -11.4
Cc1nc2c(c(SCC(=O)Nc3cccc(Cl)c3)n1)CCC2
 : -0.34 | 0.62
COc1cccc(Cn2cc3c(-c4ccccc4)nnc-3c3cc(OC)ccc32)c1
 : -0.64 | -1.36
CCc1ccc(O)c(C(=O)c2cnc3cc(-c4ccc(OC)cc4)nn3c2)c1
 : 0.89 | -1.46
CC(C)CNc1cc(Cl)c2noc3c2c1C(=O)c1ccccc1-3
 : -5.75 | -1.01
COc1ccc(OC)c(-c2csc(-c3c(N)c(C(=O)c4ccccc4)n4ccccc34)n2)c1
 : 0.91 | -1.45
COc1cc(OC)c(NC(=O)CCS(=O)(=O)c2ccc3c(c2)NC(=O)CO3)cc1Cl
 : 1.74 | x
Cc1cccc(-c2nc3scc(CCNS(=O)(=O)c4c(C)cc(C)cc4C)n3n2)c1
 : 1.03 | x
CCOC(=O)C1CCN(C(=O)CCc2c(C)nc3c(c2C)c(=O)n(C)c(=O)n3C)CC1
 : 0.12 | -1.04
CCN(CC)C(=O)Cn1c(-n2nc(C)cc2C)nc2c(c1=O)CCCC2
 : 1.12 | x
CSc1cccc(NC(=O)C2CCCN(S(=O)(=O)c3ccc4c(c3)oc(=O)n4C)C2)c1 (stereo not drawn)
 : 0.79 | -1.11
CC1CCN(C(=O)CSc2nc3ncccc3[nH]2)CC1
 : 2.25 | -0.75
Cc1ccc(CNC(=O)Cn2ncn3c(c(-n4cccc4)c4c5c(sc43)CCCC5)c2=O)cc1
 : 11.7* | 0.9
C=C(C)Cn1c(NCCCN2CCOCC2)nc2c1c(=O)[nH]c(=O)n2C
 : 0.32 | 0.16
CCOC(=O)c1sc2ccc(NC(=O)c3ccccc3Cl)cc2c1C
 : x | -0.58
Cc1oc(C(C)(C)C)cc1C(=O)N1CCC(O)(c2ccc(Cl)cc2)CC1
 : x | -1.02
COc1cccc(OC(=O)CSc2nnc(-c3ccc4c(c3)OCO4)o2)c1
 : -0.4 | -0.51
O=c1c2[nH]c3ccc(Cl)cc3c2ncn1CCCN1CCCC1
 : 0.73 | -1.66
Cc1ccc(-c2noc(CN(C(=O)c3ccc(C)c(Cl)c3)C(C)C)n2)cc1
 : 2.76 | -1.08
CCOC(=O)c1c(NC(=O)c2nc(S(=O)(=O)CC)ncc2Cl)sc2c1CCCC2
 : 2.37 | -1.63
Cc1cc2c(cc1S(=O)(=O)Nc1ccccc1Br)OCC(=O)N2
 : 1.29 | x
Cn1c(SCc2nc(-c3ccccc3)no2)nnc1C1CCCCC1
 : 1.54 | -0.61
O=S(=O)(c1ccc2nc(Nc3ccc(F)cc3)ccc2c1)N1CCCC1
 : 1.56 | x
CC(C)COc1ccc(S(=O)(=O)N2CCOCC2)cc1
 : 0.66 | -0.93
CCc1ccc(-n2c(C)cc(C#N)c2C)cc1
 : 2.71 | -0.69
O=c1c(O[C@@H]2OC([C@H](O)CO)[C@H](O)[C@H]2O)c(-c2ccc(O)c(O)c2)oc2cc(O)cc(O)c12 (stereo partly drawn)
 : 26.9* | x
COc1cccc(-n2nnc(-c3nc(-c4ccc(F)cc4)no3)c2N)c1
 : -0.49 | x
COC(=O)C1=C(C)NC(=O)NC1c1cc(OC)ccc1OC (stereo not drawn)
 : x | 3.83
Cc1ccc(C)c(OCc2nc3ccc(C)cc3[nH]2)c1
 : 0.08 | -1.65
COC(=O)c1c(SCC(=O)Nc2ccc(F)c(F)c2)[nH]c2ccc(Cl)cc2c1=O
 : -0.18 | x
COC(=O)c1c(NC(=O)c2ccccc2C(=O)O)sc2c1CCC2
 : 1.75 | 0.85
CC(C)c1nc2sc3c(NCCCN(C)C)ncnc3c2c2c1CCCC2
 : 2.68 | -1.79
O=C(NCCc1c[nH]c2ccccc12)C1CCC(Cn2c(=S)[nH]c3ccccc3c2=O)CC1 (stereo not drawn)
 : x | -3.17
CC(=O)N1CCOc2ccc(S(=O)(=O)N3CCOc4ccccc43)cc21
 : 1.35 | x
COC(=O)c1sccc1S(=O)(=O)Nc1ccc2c(c1)OCO2
 : 0.85 | x
Cc1noc(C)c1S(=O)(=O)NCCc1csc2nc(-c3ccc(F)cc3)nn12
 : 0.22 | x
COc1ccc(Cl)cc1Nc1nc2ccccc2n2c(C)nnc12
 : 1.12 | -0.32
O=S(=O)(Nc1ccc2nc(-c3ccc(F)cc3)oc2c1)c1ccccc1
 : -5.74 | 1.81
CCC(C)NC(=O)C(CC)n1nc(C)c2sc3ccccc3c2c1=O (stereo not drawn)
 : 16 | -2.32

# A section from further up, for reference:
# Below each SMILES: TAR Tat displ | CDC25B-CDK2 inh
CCOC(=O)c1c(NC(=O)c2nc(S(=O)(=O)CC)ncc2Cl)sc2c1CCCC2
 : 2.37 | -1.63
Cc1cc2c(cc1S(=O)(=O)Nc1ccccc1Br)OCC(=O)N2
 : 1.29 | x
Cn1c(SCc2nc(-c3ccccc3)no2)nnc1C1CCCCC1
 : 1.54 | -0.61
O=S(=O)(c1ccc2nc(Nc3ccc(F)cc3)ccc2c1)N1CCCC1
 : 1.56 | x
CC(C)COc1ccc(S(=O)(=O)N2CCOCC2)cc1
 : 0.66 | -0.93
CCc1ccc(-n2c(C)cc(C#N)c2C)cc1
 : 2.71 | -0.69

# Continued:
# Below each SMILES: TAR Tat displ | CDC25B-CDK2 inh
CCCNC(=O)CN(C)c1nn2c(=O)cc(CCC)nc2s1
 : 1.39 | 0.54
c1ccn(-c2nnc(C3CC3)s2)c1
 : x | 1.31
O=S(=O)(c1ccc(-c2nc(-c3ccc(Cl)cc3)cs2)cc1)N1CCOCC1
 : x | -1.28
Cn1c(=O)oc2cc(S(=O)(=O)NCC3CCCO3)ccc21 (stereo not drawn)
 : x | -0.64
Cc1ncc(-c2ccc(C)c(S(=O)(=O)Nc3ccc(Cl)cc3F)c2)o1
 : 1.48 | x
Cc1ccc(S(=O)(=O)NCCc2cn3ccsc3n2)c(C)c1
 : 0.87 | x
O=c1ccc(-c2ccc(S(=O)(=O)N3CCN(Cc4ccccc4)CC3)o2)n[nH]1
 : 1.54 | x
CCN(CC)S(=O)(=O)c1ccc2c(c1)N(CC(=O)N1CCC3(CC1)OCCO3)C(=O)CO2
 : x | 0.21
COCCNc1cc(C(C)(C)C)nc2c(-c3ccc(F)cc3)c(C)nn12
 : 0.82 | -2.08
CCOC(=O)c1c(C)n(C)c2cc(-c3ccc(Cl)cc3)c(O)cc12
 : -0.93 | -1.58
CCOc1ccc(C2CC(=O)c3c([nH]c(C(=O)OCCSC)c3C)C2)cc1 (stereo not drawn)
 : 0.29 | -0.06
